Bioassay records (PubChem)
D2 agonist: agonists of human D2 dopamine receptor (beta-arrestin); 0.084% of 360,000 active; AID 624465; DiscoveRx PathHunter D2 beta-arrestin, luminescence, 90 min; 100% = 57 uM dopamine signal; P14416; activation, % (concentration not given with the values); in the data active = activation above about 40%; inconclusive = about 15% to 40%; inactive = below about 15%; note: compound concentration not given in the record; the text of the record calls up to 30% inactive
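DiscoveRx PathHunter D2 beta-arrestin cells (2,100/well) attached overnight, then compound-stimulated 90 min at 37 C in HBSS/10 mM HEPES/0.1% Tween-20 buffer; beta-galactosidase complementation read by luminescence after 1 h at ambient temperature. Dopamine 57 uM final (EC100) as control.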
TRPML1 agonist: activates the human TRPML1 channel. Q9GZU1. TRPML1-expressing cells, Ca2+ dye fluorescence, FDSS; host cell line not named in the record; reference of the full effect not given here. activation, % (concentration not given with the values). 0.12% of 410,000 active. AID 624414; in the data active = activation above about 50%; inconclusive = about 30% to 50%; inactive = below about 30%; note: 0% is about no effect; the text of the record puts the active cut at 80%
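Tetracycline-induced TRPML1-DL cells are seeded and incubated overnight before loading with a no-wash Ca2+ dye and quencher. Agonist activity is taken from the 110 s fluorescence read following compound pin-transfer on an FDSS, before EC80 54-4 challenge.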
D2 potentiator: positive allosteric modulators of human D2 dopamine receptor. DiscoveRx D2 beta-arrestin cells, luminescence, 90 min; 100% = 57 uM dopamine signal. potentiation, % (no concentration beside the values). 0.23% of 360,000 active. AID 624464; active = potentiation of 50% or more; inconclusive = 30% to 50%; inactive = 30% or less;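 note: compound concentration not given in the record; tested on top of an EC20 dose of dopamine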
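PathHunter D2 cells, attached overnight at 37 deg C, received compound in DMSO plus dopamine at EC20 (50 nM final) for 90 min at 37 deg C. Beta-arrestin recruitment was read as luminescence after 1 h with detection reagent at ambient temperature.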
Six1-Eya2 blk: inhibitors of human Six1/Eya2 interaction; AlphaScreen GST-Six1/His-Eya2 binding, biochemical; hits give low values; control for the full effect not named in the record; activity change, % (concentration not given with the values); 0.56% of 360,000 active; AID 651725; in the data active = activity change below about -65%; inconclusive = about -30% to -65%; inactive = above about -30%; note: % is set by controls: 0 for no effect and ±100 for the full control effect
Target sequence (O00167 whole entry, looked up): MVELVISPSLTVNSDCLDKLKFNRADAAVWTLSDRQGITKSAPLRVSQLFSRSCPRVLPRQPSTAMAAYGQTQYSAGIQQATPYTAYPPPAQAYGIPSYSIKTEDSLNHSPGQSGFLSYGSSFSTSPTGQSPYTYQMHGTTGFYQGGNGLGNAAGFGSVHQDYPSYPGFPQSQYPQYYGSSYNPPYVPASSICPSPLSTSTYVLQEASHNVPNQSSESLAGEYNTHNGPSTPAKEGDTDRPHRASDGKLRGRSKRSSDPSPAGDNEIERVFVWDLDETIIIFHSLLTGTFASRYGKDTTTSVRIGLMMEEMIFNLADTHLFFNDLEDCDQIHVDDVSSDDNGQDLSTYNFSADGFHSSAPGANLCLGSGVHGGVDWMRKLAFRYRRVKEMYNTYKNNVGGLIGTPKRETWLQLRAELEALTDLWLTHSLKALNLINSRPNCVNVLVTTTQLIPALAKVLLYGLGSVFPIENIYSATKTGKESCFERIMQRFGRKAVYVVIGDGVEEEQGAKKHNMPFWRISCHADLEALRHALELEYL
Target sequence (Q15475 whole entry, looked up): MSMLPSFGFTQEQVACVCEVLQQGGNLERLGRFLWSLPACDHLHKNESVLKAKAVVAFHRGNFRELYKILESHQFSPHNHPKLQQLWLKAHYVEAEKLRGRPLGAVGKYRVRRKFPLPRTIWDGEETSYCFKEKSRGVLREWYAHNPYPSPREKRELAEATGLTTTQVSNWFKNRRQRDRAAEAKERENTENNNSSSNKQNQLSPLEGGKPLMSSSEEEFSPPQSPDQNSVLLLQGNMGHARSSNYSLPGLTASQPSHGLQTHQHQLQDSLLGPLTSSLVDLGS
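Six1/Eya2 binding was read as AlphaScreen signal after compounds were pinned into GST-Six1 plus His-tagged Eya2 (5X stock 250/500 nM) in pH 8.0 Tris/NaCl/TCEP buffer, beads added, then incubated 1 h, 37 C, dark.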
CtBP-E1A blk: blocks the CtBP interaction with E1A; AlphaScreen GST-E1A/His-CtBP binding, 1536-well; hits give low values; control for the full effect not named in the record; activity change, % (test concentration not listed); 0.49% of 340,000 active; AID 651724; in the data active means activity change below about -65%; inconclusive means about -30% to -65%; inactive means above about -30%; note: % is set by controls: 0 for no effect and ±100 for the full control effect; compound concentration not given in the record
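In 5 uL wells, 23 nL compound meets equimolar GST-E1A and His-CtBP (5X stock 125 nM each) for 2 h, 37 °C. Beads (5X, 50 ug/mL) then 1 h, 37 °C, dark.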
PINK1 expr mod: changes PINK1 expression; PINK1 immunofluorescence, high-content cytometry, 24 h; Potency, µM (titrated, usually from 76.6 µM), for the others: at the highest dose activation (PINK1 increase), hits mostly activators; 0.2% of 410,000 active; active = well fitted activation curve with a large enough effect; inconclusive = small, poorly fitted or top-dose-only effect; inactive = flat fitted curve, though single readings scatter; cell line not stated here;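 note: potency is the fitted concentration of half-maximal effect; % of control where 0% means no effect; nearly all actives have a fitted effect of over 65% in size; a mitochondrial uncoupler was the plate control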
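Readout is PINK1 immunofluorescence, quantified alongside mitochondrial, cell and nuclear markers by laser-scanning microplate cytometry. Cells from a stable line were exposed to compound titrations (5 concentrations) for 24 hours, with CCCP controls.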
An asterisk follows results filed as active; ? = inconclusive; / = not tested or not shown; & = joins results of further samples; [ ] = another dose, or the depositor's remark. Random draw from the library. About 1.3% of those tested had a hit in this group.

SMILES	D2 agonist	TRPML1 agonist	D2 potentiator	Six1-Eya2 blk	CtBP-E1A blk	PINK1 expr mod
NC(=O)c1ccc(NC(=O)COC(=O)CNC(=O)c2sc3ccccc3c2Cl)cc1	2.6	0.4	1	5	23	2.0%
Cc1cc(C)n2c(SCC(=O)N(C)C3CCCCC3)nnc2n1	1.6	-0.1	-5	2	/	-1.7%
COc1ccc(S(=O)(=O)N2CCOCC2)cc1NC(=O)COC(=O)c1ccc(C)s1	-0.2	1.6	-5	-15	-13	2.5%
C[C@H]1CN([C@@H](C)CO)C(=O)CCCn2nncc2CO[C@@H]1CN(C)S(=O)(=O)c1ccc(-c2ccccc2)cc1	0.5	-0.3	-2	-14	-8	-1.2%
COc1ccccc1C(=Cc1ccc([N+](=O)[O-])cc1)C(=O)O	-0.6	-0.2	-11	1	1	2.5%
CC(C)OC(=O)CSc1nnc(-c2ccccn2)n1N	-7.7	0.0	-8	-20	-8	0.4%
Oc1c(C=Nc2ccccc2)sc2ccccc12	-0.7	5.2	-14	12	3	-1.2%
CCOC(=O)C1CCN(S(=O)(=O)c2ccc(NC(C)=O)c(Cl)c2)CC1	-4.2	0.8	-2	4	5	4.7%
CC[C@@H](NC(=O)[C@H](Cc1ccccc1)NC(=O)CC[C@H]1O[C@@H](n2ccc(=O)[nH]c2=O)[C@H](O)[C@@H]1O)c1ccccc1	-2.1	0.1	-1	1	4	1.6%
CCSC1=C(C#N)C(c2ccccc2OC)CC(=O)N1 (configuration not stated)	-3.3	0.0	-6	11	0	-1.1%
C=CCn1c(C23CC4CC(CC(C4)C2)C3)n[nH]c1=S	?	1.1	-7	-13	5	0.5%
Cc1cc(C)n(CCNC(=O)CC2C(=O)NCCN2CC2CCCCC2)n1 (configuration not stated)	-2.0	-0.5	-4	4	4	0.1%
Cc1cc(C)c2c3c(cn2n1)c(=O)n(C)c(=O)n3C	-2.7	-0.6	-5	-3	2	-0.8%
NNC(=O)c1sc(-c2ccccc2)cc1N	-1.2	1.0	3	-6	-9	4.5%
Cc1[nH]nc(SCC(=O)N(C)c2ccccc2)c1[N+](=O)[O-]	-4.3	0.7	-11	5	/	0.7%
Cc1ccc2ccc3cccnc3c2n1	-3.2	-0.3	1	?	-90*	2.6%
COc1ccc(S(=O)(=O)NCC(c2ccc(C)cc2)N2CCN(C)CC2)cc1 (configuration not stated)	-2.4	0.2	-31	10	10	-1.8%
O=C(CSCc1cccc(CSCC(=O)Nc2ccc3ccccc3c2)n1)Nc1ccc2ccccc2c1	-1.0	-0.2	20	-8	-1	-0.4%
COc1ccc(Cc2nnc(NC(=O)C3CC(=O)N(c4ccccc4C)C3)s2)cc1OC (configuration not stated)	-7.3	-0.2	-24	1	4	0.0%
COc1ccc(C2CC(O)(c3ccccc3)Oc3c(C)ccc(C)c32)cc1 (configuration not stated)	-3.6	0.7&0.9	-3	-1	0	-0.1%
O=C(O)CN1CCN(Cc2ccccc2Cl)C1=O	8.8	2.8	8	3	5	3.7%[38.3 µM]
S=c1[nH]nc(-c2ccco2)n1/N=C/c1c(Cl)cccc1Cl	-0.7	-1.0	-10	7	/	4.7%
O=C(CCN1C(=O)/C(=C/c2ccccc2Cl)SC1=S)NN1CCOCC1	0.4	-0.5	-2	6	-14	0.5%
Cn1c(SCC(=O)NC2CCCCC2)nnc1-c1ccncc1	5.3	1.1	-4	-3	0	-1.8%
CCOc1ccc(C(=O)Cc2ccc3oc(C(=O)O)cc3c2)c(O)c1	0.9	-0.3	-5	5	0	-0.7%

(further entries)
SMILES	D2 agonist	TRPML1 agonist	D2 potentiator	Six1-Eya2 blk	CtBP-E1A blk	PINK1 expr mod
O=C(O)c1cccc2c1/C(=N/O)c1ccccc1-2	-7.0	1.4	-4	-1	4	-0.8%
COC(=O)c1ccc(S(=O)(=O)N2CCC(O)CC2)n1C	2.0	1.0	-1	-3	5	-0.3%
Cc1cccc(C)c1NC(=O)CN(C)C(=O)c1ccc(COc2ccccc2)cc1	-3.1	-0.6	0	-5	8	0.7%
Nc1ccc(CCS(N)(=O)=O)cc1	1.1	1.3	-3	3	3	4.0%[38.3 µM]
CCOC(=O)/C(C#N)=C\C1=C(N2CCOCC2)CC(C)(C)OC1	-16	0.7	0	3	13	1.4%
C=CCOc1ccccc1CNc1cccc(F)c1	-5.0	3.4	-6	33	27	7.1%
COc1cccc(CN(C)CC(=O)Nc2sc3c(c2C#N)CCC3)c1OC	-3.6	-0.7	-2	-4	2	0.8%
C[C@@H](c1ccccc1)N1C[C@H](COCc2ccccc2)Oc2cc(N3CC[C@@H](N(C)C)C3)ccc2S1(=O)=O	/	-0.1	/	?	-26	0.2%
O=C(Nc1ccnn1C1CCN(Cc2ccc3nonc3c2)CC1)c1cccc(F)c1	-1.8	0.7	-16	2	-2	-0.5%
O=C(Cc1ccc(Cl)cc1)NCCS(=O)(=O)N1CCN(c2ccccc2)CC1	-0.2	1.3	4	2	-12	3.6%
CCN(CC)CCn1cnc2c([nH]c3cccc(OC)c32)c1=O	-3.5	0.3	-13	-3	3	1.8%
COc1ccc(OC)c(S(=O)(=O)N2CCC(C(=O)N3CCCCCC3)CC2)c1	-2.1	0.0	-8	-2	1	0.6%
c1coc(C2=NCCc3ccccc32)c1	7.4	-1.1	1	-5	/	0.8%
COc1cccc(N2CCN(c3ccc(S(=O)(=O)N4CCCC4)cc3)CC2)c1	-1.3	2.1	-4	10	0	2.9%
Cc1ccc(C(=O)NCC(=O)OCC(=O)c2ccc(Cl)s2)cc1	-6.0	-0.6	-4	2	3	2.4%
COc1ccccc1NC(=O)Nc1nc(CC(=O)Nc2ccc(F)c(F)c2)cs1	0.1	2.9	-12	-15	-4	14%
O=C(NN=C1CCN(Cc2ccccc2)CC1)c1cccc(S(=O)(=O)Nc2ccccc2Cl)c1	-3.4	0.6	-1	-13	-5	6.8%
O=C(Nc1c(F)cc(F)cc1Br)c1cc(S(=O)(=O)N2CCN(c3ccccn3)CC2)ccc1F	-2.2	-0.1	-2	2	/	2.2%
O=C(CNC(=O)c1cccc(S(=O)(=O)N2CCc3ccccc32)c1)Nc1ccccc1Br	-1.8	1.0	-6	-7	1	-0.2%
COCc1cnc(C)nc1N	1.2	-0.1	-5	37	5	-0.1%
OC1(c2ccccc2)c2ccccc2-c2ncccc21 (configuration not stated)	-3.2	-0.1	-14	2	-8	1.0%
COc1ccc(C2CC(=O)N3CN(c4ccc(C)c(Cl)c4)CSC3=C2C#N)cc1OC (configuration not stated)	-5.1	0.2	-3	5	2	1.8%
C#CCOCCOCCOCCNc1nc(N2CCN(C(=O)[C@H](Cc3cc4ccccc4[nH]3)n3cc([C@@H](N)Cc4ccc(O)cc4)nn3)CC2)nc(N2CCN(C(=O)[C@H](Cc3cc4ccccc4[nH]3)n3cc([C@@H](N)CC(C)C)nn3)CC2)n1	-4.4	0.1	-21	-22	-25	4.9%
CC1CCCC(NC(=O)CSc2nnc(-c3cccnc3)n2N)C1C (configuration not stated)	-5.0	0.7	-6	-8	-3	0.3%
Cc1c(Cl)cccc1Nc1nc(N)nc(CN2CCCCCC2)n1	-0.8	0.5	-24	-11	-14	-0.8%

4 compounds already listed, arranged by number of heavy atoms, lowest first:
SMILES	D2 agonist	TRPML1 agonist	D2 potentiator	Six1-Eya2 blk	CtBP-E1A blk	PINK1 expr mod
COCc1cnc(C)nc1N	1.2	-0.1	-5	37	5	-0.1%
C=CCOc1ccccc1CNc1cccc(F)c1	-5.0	3.4	-6	33	27	7.1%
O=C(NN=C1CCN(Cc2ccccc2)CC1)c1cccc(S(=O)(=O)Nc2ccccc2Cl)c1	-3.4	0.6	-1	-13	-5	6.8%
C#CCOCCOCCOCCNc1nc(N2CCN(C(=O)[C@H](Cc3cc4ccccc4[nH]3)n3cc([C@@H](N)Cc4ccc(O)cc4)nn3)CC2)nc(N2CCN(C(=O)[C@H](Cc3cc4ccccc4[nH]3)n3cc([C@@H](N)CC(C)C)nn3)CC2)n1	-4.4	0.1	-21	-22	-25	4.9%

Reprinted at random: two records from the list, in no set order.
SMILES	D2 agonist	TRPML1 agonist	D2 potentiator	Six1-Eya2 blk	CtBP-E1A blk	PINK1 expr mod
Cc1cccc(C)c1NC(=O)CN(C)C(=O)c1ccc(COc2ccccc2)cc1	-3.1	-0.6	0	-5	8	0.7%
Nc1ccc(CCS(N)(=O)=O)cc1	1.1	1.3	-3	3	3	4.0%[38.3 µM]

Other structures follow.
SMILES	D2 agonist	TRPML1 agonist	D2 potentiator	Six1-Eya2 blk	CtBP-E1A blk	PINK1 expr mod
COc1ccc(-n2ccnc2CN2CCN(C3CCCC3)C(CCO)C2)cc1 (configuration not stated)	0.8	-0.8	-23	-16	/	0.9%
S=C(Nc1ccc(Cl)c(Cl)c1)NN1CCOCC1	6.5	0.9	-24	0	2	6.4%
CCn1nnc(-c2ccccc2NC(=O)c2ccc(-n3cnnn3)cc2)n1	-1.2	5.3	-6	4	-7	2.8%[38.3 µM]
Cc1onc(-c2ccccc2)c1C(=O)Nc1c(C)n(C)n(-c2ccccc2)c1=O	-0.1	-0.8	-1	3	14	0.1%
Cn1ccc2c(N3CCCCCC3)cc3c(c21)C1CCC3C1 (configuration not stated)	12	0.2	3	?	?	16%
Cc1ccc(S(=O)(=O)N2CCCCC2)cc1NC(=O)Cn1cc(C(F)(F)F)ccc1=O	-2.7	-0.1	-4	4	-1	4.4%
CCN(CC(=O)Nc1ccc(OC)cc1)C(=O)CCc1nc2ccccc2c(=O)[nH]1	-6.6	-0.9	-14	-5	3	3.7%
COc1ccc(-n2ccnc2SCC(=O)Nc2ccc(OC)cc2OC)cc1	0.5	1.1	-14	-23	-15	-0.3%

Compounds shown so far containing a thiophene ring, fused or not:
SMILES	D2 agonist	TRPML1 agonist	D2 potentiator	Six1-Eya2 blk	CtBP-E1A blk	PINK1 expr mod
NC(=O)c1ccc(NC(=O)COC(=O)CNC(=O)c2sc3ccccc3c2Cl)cc1	2.6	0.4	1	5	23	2.0%
COc1ccc(S(=O)(=O)N2CCOCC2)cc1NC(=O)COC(=O)c1ccc(C)s1	-0.2	1.6	-5	-15	-13	2.5%
Oc1c(C=Nc2ccccc2)sc2ccccc12	-0.7	5.2	-14	12	3	-1.2%
NNC(=O)c1sc(-c2ccccc2)cc1N	-1.2	1.0	3	-6	-9	4.5%
COc1cccc(CN(C)CC(=O)Nc2sc3c(c2C#N)CCC3)c1OC	-3.6	-0.7	-2	-4	2	0.8%
Cc1ccc(C(=O)NCC(=O)OCC(=O)c2ccc(Cl)s2)cc1	-6.0	-0.6	-4	2	3	2.4%
